Ecoli growth: E. coli growth inhibition; 330,000 compounds, 0.21% hits; Escherichia coli growth, OD600, 23 h; active compounds read low; OD600 absorbance (test concentration not listed);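 active = OD600 absorbance below the run mean of sample wells minus 3.6 SD, in any replicate, cut at about 0.56 in these data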;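 also: stock transfer was 300 nL into about 60 µL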
HNF4A DNA FP: change in binding of human HNF4 alpha to DNA; HNF4a-FITC DNA binding, fluorescence polarization, 1 h; activity change, % at 10 µM; 360,000 compounds, 0.3% hits; AID 1224865; in the data active = activity change above about 30%, passing the limit was not always enough;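 also: controls were the assay level and a saturating level of protein; the project sought stronger binding though the title names inhibitors; some compounds called inactive have numbers as strong as hits; positive values seem to mean higher polarization but the record does not say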
Bfl-1 A1 inh: inhibitors of the anti-apoptotic protein A1, read as caspase activation | AID 2462 | caspase activation, % (test concentration not listed) | 330,000 compounds, 0.066% hits | MEF A1-2A-BIM cells, Caspase-Glo 3/7 luminescence, 3 h; percent of clofoctol response, vehicle zero;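 active = over half of replicate activation scores above 10%, or exactly half above 10 with the replicate mean above 10; inconclusive = replicate mean below 10 yet half the replicates above 10; inactive = over half of replicates below 10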;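 also: wells of about 30 µL received 50 nL stock; many hits fall short of the cut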
Vif A3G: HIV-1 Vif–A3G interaction blockers – biochemical, TR-FRET, GST-Vif 1-94, biotin-A3G peptide, dose response retest, primary screen (AID 1117319) | TR-FRET GST-Vif / biotin-A3G peptide binding; higher % means a stronger effect; test concentration not given here; strong numbers were not always called active | inhibition, %, or IC50 in µM where a hit was titrated | 260,000 compounds, 0.57% hits;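 active = above the screen mean plus three standard deviations and confirmed in dose response; inconclusive = results disagree or hit not tested in dose response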;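 also: Vif residues 1-94 fused to GST binding biotinylated APOBEC3G peptide 110-148; 0% = full assay without inhibitor and 100% = GST in place of GST-Vif; retest series ran down from 100 µM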
LANA-H2A inh: blocks KSHV LANA binding to histone H2A/H2B; Q9QR71; AID 2629; inhibition, % (test concentration not listed); cell-free LANA-H2A/H2B peptide, fluorescence polarization; 320,000 compounds, 0.6% hits; in the data active = inhibition mostly above about 10%, no sharp cut-off; inactive = mostly below about 6.7%;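 also: stock transfer was 7.5 nL into about 10 µL; 0% = median of vehicle wells and 100% = median of positive control wells; one replicate is shown; the record names a cut of 25% in any replicate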
B2AR ag: activates human beta-2 adrenergic receptor causing internalization; P07550; Am2.2-beta2AR cells, FAP receptor internalization, flow cytometry; reference of the scale not given here; response, % (concentration not given with the values); 340,000 compounds, 0.43% hits; AID 504454;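 active = response above a set limit, near 3 SD of response in nonfluorescent compounds, cut at about 42% in these data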;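 also: stock transfer was 100 nL into about 11 µL; a reference agonist was the positive control; negative values mostly stem from fluorescent compounds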
Target sequence (P07550 whole entry, looked up): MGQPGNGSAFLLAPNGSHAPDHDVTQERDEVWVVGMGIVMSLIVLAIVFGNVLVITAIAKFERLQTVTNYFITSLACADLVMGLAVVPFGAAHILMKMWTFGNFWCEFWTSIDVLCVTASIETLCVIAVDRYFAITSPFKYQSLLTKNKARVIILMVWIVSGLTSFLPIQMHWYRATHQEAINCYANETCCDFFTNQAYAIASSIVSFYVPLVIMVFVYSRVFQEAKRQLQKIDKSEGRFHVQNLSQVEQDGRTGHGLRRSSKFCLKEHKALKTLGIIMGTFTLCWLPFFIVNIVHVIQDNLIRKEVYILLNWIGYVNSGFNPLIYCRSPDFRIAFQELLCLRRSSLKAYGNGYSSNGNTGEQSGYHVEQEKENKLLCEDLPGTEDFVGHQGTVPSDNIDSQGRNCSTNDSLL
UCH37 DUB inh: inhibitors of human deubiquitinating enzyme UCH37; Q9Y5K5; purified proteasome/UCH37, Ub-AMC cleavage fluorescence; inhibition, % (no concentration beside the values); 330,000 compounds, 0.33% hits; AID 588478;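 active = mean of two replicates above 20%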;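 also: 0% = compound-free wells with enzyme and 100% = wells lacking proteasome; stock transfer was 100 nL into about 20 µL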
Target sequence (Q9Y5K5 whole entry, looked up): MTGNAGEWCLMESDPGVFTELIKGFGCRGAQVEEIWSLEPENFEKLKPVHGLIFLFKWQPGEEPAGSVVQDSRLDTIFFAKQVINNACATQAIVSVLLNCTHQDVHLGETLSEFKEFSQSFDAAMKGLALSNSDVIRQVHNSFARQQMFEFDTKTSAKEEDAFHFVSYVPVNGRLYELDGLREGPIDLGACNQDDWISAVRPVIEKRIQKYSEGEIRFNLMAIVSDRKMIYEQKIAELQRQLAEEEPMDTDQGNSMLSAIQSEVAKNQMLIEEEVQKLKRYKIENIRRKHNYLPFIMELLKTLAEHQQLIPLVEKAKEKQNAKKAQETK
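system = Proteasome-associated human UCH37 deubiquitinase | amount = 0.15 nM proteasome as dispensed | medium = pH 7.4 Tris-HCl (50 mM) with ovalbumin, ATP-MgCl2, DTT | incubation = 30 min preincubation with enzyme, 25 min cleavage at room temperature | detection = AMC fluorescence 355/460 nm | read-out basis = percent inhibition | controls = no-proteasome and no-compound wells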
* marks the source's active call; other numbers are inactive results; ? = inconclusive; . = no result given; & = joins results of further samples.

no.	SMILES	Ecoli growth	HNF4A DNA FP	Bfl-1 A1 inh	Vif A3G	LANA-H2A inh	B2AR ag	UCH37 DUB inh
1	CC(=O)Nc1ccc(C(=O)N2CCN(S(=O)(=O)c3ccc4c(c3)OCCCO4)CC2)cc1	0.679	-2.5	1.4	11.8%	0.2	0.4	-0.3
2	CC1CN(C)C(C)C/C1=N\Oc1ccc([N+](=O)[O-])cc1 (stereo not drawn)	.	3.8	-0.8	19.3%	2.7	5.7	.
3	Cc1[nH]nc2c1C(c1ccc3c(c1)OCO3)C(C#N)=C(N)O2 (stereo not drawn)	0.636	-1.2	-0.5	8.1%	4.9	3.2	3.1
4	Cc1ccccc1OCC(O)Cn1nnc2ccccc21 (stereo not drawn)	0.702	-3.1	0.0	23.1%	3.1	0.2	5.0
5	CCOC(=O)c1[nH]ncc1CN1CCCC(C(=O)c2cccc3ccccc23)C1 (stereo not drawn)	0.683	-1.8	-0.2	-5.4%	1.2	3.1	0.2
6	O=C(Nc1ccc(N2CCCCC2)cc1)c1ccc2c(c1)OCCO2	0.633	-1.2	-1.3	-7.2%	-4.7	-0.9	-5.3
7	O=[N+]([O-])c1cc2c(cc1C=Nc1ccccc1)OCO2	.	2.3	0.0	?	-2.7	14.4	.
8	Cc1cc(NC(=O)C(C)SCC(=O)Nc2cc(Cl)ccc2N2CCN(C)CC2)no1 (stereo not drawn)	0.72	1.4	-0.7	-7.6%	1.8	-4.8	1.0
9	COc1ccc2oc(=O)c(C(=O)N3CCN(c4ccccc4F)CC3)cc2c1	0.695	1.1	-0.2	-1.4%	4.3	-2.3	-28.0
10	CCN(CC)C(=O)CSc1nnc([C@@H](NC(=O)OC(C)(C)C)C(C)C)o1	0.621	-3.1	0.6	0.6%	-1.5	-0.5	-0.3
11	O=C(Nc1nnc(-c2ccco2)o1)c1ccc(S(=O)(=O)N2CCCC2)cc1	0.7	0.4	0.3	-10.1%	-3.0	-8.6	5.4
12	COc1ccc2cc(C(c3nnnn3C3CCCCC3)N3CCCCCC3)c3nnnn3c2c1 (stereo not drawn)	0.728	0.4	-0.4	.	1.8	-2.2	1.0
13	O=C(Nc1nnc(-c2ccncc2)o1)c1ccc2ccccc2c1	0.676	15.2	-1.6	8.4%	-34.1	10.0	7.1
14	O=C(NCCNS(=O)(=O)c1ccccc1Cl)c1cc(OCC(F)(F)F)ccc1OCC(F)(F)F	0.715	2.6	0.8	-4.6%	5.1	1.4	1.1
15	Nc1cccc(Oc2cnccn2)c1	0.64	1.4	3.7	-0.6%	-1.9	5.7	0.4
16	COc1ccc(OC)c(/C=N/n2c(C)nc3ccccc3c2=O)c1	.	5.7	0.6	.	-2.1	-12.2	.
17	O=C(Nc1ccccc1)Nc1ccccn1	0.734	1.6	-6.8	-2.3%&16.3%	1.3	-10.0	5.4
18	O=C(COc1ccc2c3c(c(=O)oc2c1)CCC3)NCCN1CCOCC1	0.684	3.4	-0.2	.	-0.8	-5.2	-15.4
19	CC(C)OC(=O)c1nnc(-c2ccccc2)nc1OC(C)C	0.791	-1.8	?	1.1%	-1.2	-6.3	2.9
20	CS(=O)(=O)c1ccc(Cl)c(NC(=O)Cc2ccccc2F)c1	0.701	1.4	0.7	-4.0%	2.4	-7.9	2.4
21	CCOC(=O)/C(=C/C=C1\Sc2cc(C)c(C)cc2N1CC)C(C)=O	0.678	171.4	.	.	.	-75.8	10.3
22	Cc1ccc(NC(=O)c2cccc(S(=O)(=O)N(C)c3ccccc3)c2)cc1S(=O)(=O)N1CCOCC1	0.714	-2.9	-0.2	-13.5%	-1.8	0.1	2.4
23	COc1ccc(C(C(=O)NC2CCCC2)N(CCCO)C(=O)Cn2nnc(-c3ccc(C)o3)n2)cc1 (stereo not drawn)	0.714	1.1	0.2	-2.8%	-2.9	11.9	5.5
24	Cc1ccccc1N1CC(C(=O)Nc2ccc(S(=O)(=O)N3CCCC3)cc2)CC1=O (stereo not drawn)	0.72	1.3	-0.9	0.5%	-0.5	-6.2	3.9
25	Cc1cc(Cl)ccc1NNC(=O)CCc1ccccc1	0.654	-5.4	0.8	-2.7%	0.2	-3.4	2.7
26	Cc1cccc(NC(=S)NC(NC(=O)OCc2ccccc2)C(Cl)(Cl)Cl)c1 (stereo not drawn)	0.697	3.2	-0.1	0.8%	1.1	5.3	4.2
27	COC(=O)Cn1c(=NC(=O)CSCC(=O)Nc2cc(C)on2)sc2cc(C(=O)OC)ccc21	0.695	-0.2	0.7	-23.5%	-2.6	1.5	2.2
28	CNC(=S)NNc1nc(C)cc(C)n1	0.709	-1.9	0.2	-3.1%	-0.4	-3.9	3.3
29	COc1cccc(CN(Cc2ccco2)C(c2ccc(F)cc2)c2nnnn2C(C)(C)C)c1 (stereo not drawn)	0.71	-1.1	-0.3	?	2.0	7.1	5.0
30	Fc1ccccc1Oc1nc(-c2ccncc2)nc2ccccc12	0.661	-1.6	-1.4	.	-1.1	2.8	-2.1
31	COc1ccc(NC(=O)CCSc2nnc(C)s2)cc1	0.66	-0.8	-1.3	-6.4%	-6.2	2.6	-0.1
32	Nc1c(-c2ccc(F)cc2)cnn1C1CCS(=O)(=O)C1 (stereo not drawn)	0.716	0.5	-0.4	28.1%	-0.6	-0.1	3.6
33	Cc1ccc(-n2c(CCc3ccccc3)nnc2SCC(=O)NCc2ccccc2)cc1C	0.704	0.3	0.6	10.0%	-5.0	0.1	5.8
34	CC(C)(C)c1cc(C(=O)N/N=C/c2ccc(O)cc2)n(-c2ccccc2)n1	.	3.0	1.0	-5.9%	3.0	-19.6	.
35	O=C(Nc1cccc(-c2nnc(-c3ccccc3)o2)c1)c1ccc(Br)o1	0.673	-2.2	-0.9	3.2%	1.5	-1.6	0.5
36	Cc1ccc(N(CN2C(=O)C3CC=CCC3C2=O)C(=O)c2ccco2)cc1Cl (stereo not drawn)	0.682	-1.8	0.2	53.4µM*	-2.3	-6.4	4.3
37	COc1ccc2oc(-c3ccncc3)cc(=O)c2c1	0.661	3.1	.	-8.2%	.	-0.1	-103.2
38	O=C1CC2(CCN(S(=O)(=O)c3ccccc3)CC2)Oc2ccccc21	0.702	1.1	0.5	-7.2%	-7.4	2.9	-18.2
39	Cc1c(C(=O)Nc2nccs2)oc2ccc(Br)cc12	.	5.8	-6.7	-55.3%	0.0	0.7	.
40	CC(=O)Nc1ccc(NC(=O)C(c2ccccc2)c2ccccc2)cc1	0.739	-1.4	1.4	.	1.6	-1.7	5.0
41	COc1ccc2c(c1OC)C(=O)N(c1ccc(C)cc1)C2=O	0.689	2.0	-0.3	0.7%	15.9*	1.6	0.5
42	Cc1cccc(C(=O)OCC(=O)c2c(N)n(CC(C)C)c(=O)n(C)c2=O)c1[N+](=O)[O-]	0.614	1.2	0.0	-7.3%	2.0	4.6	0.6
43	O=C(Cc1coc2cc(O)ccc12)N1CCN(S(=O)(=O)c2ccc(Br)cc2)CC1	0.716	-4.1	.	.	.	-5.0	0.9
44	CC[n+]1ccc(C)c2cc(SC(F)(F)F)ccc21	0.715	-3.4	0.0	?	-9.2	3.5	-4.8
45	CCn1c(SCCC(=O)Nc2ccccc2)nnc1-c1ccc(OC)cc1	0.797	-5.3	-0.4	-15.4%	4.6	-16.0	-1.2
46	Cc1ccc(N2CCN(C(=S)c3ccc(-c4cccc([N+](=O)[O-])c4)o3)CC2)cc1	.	7.3	0.2	.	6.7	-5.1	.
47	Cc1ccc(C)c(N2CCN(CC3CCCCC3)CC2)c1	0.65	0.4	0.7	.	-1.4	4.9	0.7
48	CCOc1ccc(NC(=O)C(c2ccccn2)N(C(=O)CCl)c2ccc(F)cc2)cc1 (stereo not drawn)	0.669	5.0	0.2	?	33.1*	-13.6	-3.4
49	O=C(COC(=O)c1cccnc1Cl)Nc1cc(S(=O)(=O)N2CCCCC2)ccc1Cl	0.712	0.6	0.8	6.0%	1.4	-0.8	5.1
50	Nc1ccc2nc(SCc3cccc(F)c3)sc2c1	0.74	1.7	0.0	-1.1%	-0.5	13.5	3.4

Following part:
no.	SMILES	Ecoli growth	HNF4A DNA FP	Bfl-1 A1 inh	Vif A3G	LANA-H2A inh	B2AR ag	UCH37 DUB inh
51	CCOC(=O)Cn1cnc2c(nnn2-c2ccccc2)c1=O	0.712	7.7	-0.4	.	2.7	1.2	1.9
52	COc1cc(C(=O)OCC(=O)Nc2ccc(C)cc2)cc(OC)c1OC	0.66	-0.7	-0.8	-2.0%	-2.3	9.2	-0.2
53	O=C(NNC(=O)c1ccc([N+](=O)[O-])cc1Cl)c1ccncc1	.	3.5	0.7	.	-4.6	-2.2	4.4
54	OC(CN1CCN(Cc2ccc3c(c2)OCO3)CC1)c1c[nH]c2ccccc12 (stereo not drawn)	.	-2.7	.	4.1%	.	5.7	.
55	Cc1cc(OC(=O)c2c(F)cc(F)cc2F)nc(C)n1	0.693	4.6	0.2	.	-2.1	-1.6	1.6
56	COc1ccccc1CNC(=O)[C@H](Cc1c[nH]c2ccccc12)NC(=O)[C@@H]1Cc2ccccc2CN1	0.644	-0.1	0.2	.	-3.1	22.6	-1.4
57	O=c1c2ccsc2ncn1Cc1cccc(C(F)(F)F)c1	0.702	-1.4	0.3	29.9%	-2.9	2.0	13.1
58	NC1=NC(=O)C(c2ccccc2)C(=O)N1 (stereo not drawn)	0.676	-4.5	.	-2.4%	.	-4.6	0.5
59	O=C(C1CCN(S(=O)(=O)c2ccc(-n3cnnn3)cc2)CC1)N1CCN(c2ccccc2)CC1	0.675	-0.1	0.0	-9.6%	3.3	-4.3	3.2
60	O=c1[nH]c(=S)[nH]c2sccc12	0.692	-0.3	-0.4	-8.6%	-4.2	-0.3	0.9
61	COc1ccc(N2CCN(C(=O)C3CCC(Cn4c(=S)[nH]c5ccccc5c4=O)CC3)CC2)cc1 (stereo not drawn)	0.67	0.4	2.5	-4.1%&5.7%	-23.0	-3.5	1.2
62	COc1ccccc1NC(=O)CSc1nnc(-c2ccccn2)o1	0.665	-5.1	-0.2	.	2.3	7.5	1.9
63	Cc1cccnc1CCNC(=O)CCc1nnc(CCc2ccccc2)o1	0.704	4.5	0.3	0.0%	6.2	-4.2	4.2
64	O=C(Nc1ccccc1)c1nc[nH]c1C(=O)NCc1ccccc1	0.67	-1.9	0.0	.	-0.2	7.5	2.2
65	N#Cc1ccc(CSc2nnc(Nc3ccccc3)s2)cc1	0.747	4.4	-0.8	-0.7%	4.8	2.2	3.3
66	O=C(Oc1ccc([N+](=O)[O-])cc1)c1ccc(Cl)c(S(=O)(=O)N2CCCCC2)c1	0.66	.	0.0	.	-10.3	.	2.2

Screening data deposited in PubChem by several laboratories.
